Six1-Eya2 inh – qHTS Assay for Inhibitors of the Six1/Eya2 Interaction; Homeobox protein SIX1 (Homo sapiens) + Protein phosphatase EYA2 (Homo sapiens), …; AlphaScreen GST-Six1/His-Eya2 binding, biochemical; hits give low values; control for the full effect not named in the record; activity change, % (concentration not given with the values); 360,000 compounds, 0.56% hits; AID 651725, 2012; in the data active = activity change below about -65%; inconclusive = about -30% to -65%; inactive = above about -30%; also: % is scaled to controls: 0 for no effect and ±100 for the full control effect
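Homogeneous AlphaScreen proximity assay pairing GST-Six1 with His-tagged Eya2 (added as 5X mix: 250 nM and 500 nM) in 50 mM Tris pH 8.0, 300 mM NaCl, 1 mM TCEP. Glutathione donor and nickel acceptor beads; 1 h, 37 °C, dark.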
PINK1 expr mod – A Quantitative High throughput Screen to Identify Chemical Modulators of PINK1 Expression. 410,000 compounds, 0.2% hits. Potency, µM (titrated, usually from 76.6 µM), without a hit: top-dose activation (PINK1 increase), actives largely listed as activators. PINK1 immunofluorescence, high-content cytometry, 24 h. AID 624263, 2012; active = well fitted activation curve with a large enough effect; inconclusive = small, poorly fitted or top-dose-only effect; inactive = flat fitted curve, though single readings scatter; cell line not stated here;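 also: potency is read from the fitted curve at half-maximal effect; % of control where 0% means no effect; nearly all actives have a fitted effect of over 65% in size; a mitochondrial uncoupler was the plate control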
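Cells are seeded, rested 12 hours, then given compound at five concentrations or DMSO for 24 hours. After fixation, blocking and antibody staining, PINK1 amount and mitochondrial localization are scored; CCCP serves as control.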
D2 PAM – Beta-Arrestin HTS for Positive Allosteric Modulators of the Human D2 Dopamine Receptor: Potentiators; D(2) dopamine receptor (Homo sapiens), P14416; DiscoveRx D2 beta-arrestin cells, luminescence, 90 min; 100% = 57 uM dopamine signal; potentiation, % (test concentration not listed); 360,000 compounds, 0.23% hits; active = potentiation of 50% or more; inconclusive = 30% to 50%; inactive = 30% or less;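 also: compound concentration not given in the record; tested on top of an EC20 dose of dopamine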
Target sequence (P14416 whole entry, looked up): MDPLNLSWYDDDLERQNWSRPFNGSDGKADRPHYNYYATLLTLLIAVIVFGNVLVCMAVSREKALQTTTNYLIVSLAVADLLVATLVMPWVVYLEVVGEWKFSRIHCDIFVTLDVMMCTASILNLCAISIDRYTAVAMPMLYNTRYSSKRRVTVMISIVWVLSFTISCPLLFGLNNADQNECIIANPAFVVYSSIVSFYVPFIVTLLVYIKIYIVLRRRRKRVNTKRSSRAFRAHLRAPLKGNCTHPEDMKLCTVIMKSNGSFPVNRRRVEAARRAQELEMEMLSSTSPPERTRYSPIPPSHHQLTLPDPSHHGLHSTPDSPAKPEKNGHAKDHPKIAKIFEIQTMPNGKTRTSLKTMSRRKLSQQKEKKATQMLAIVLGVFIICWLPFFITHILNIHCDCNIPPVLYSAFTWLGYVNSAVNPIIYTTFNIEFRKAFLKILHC
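D2 cells co-treated with compound plus 50 nM dopamine (EC20) for 90 min at 37 deg C to detect potentiation. Beta-arrestin recruitment was read as enzyme-fragment luminescence after 1 h at ambient temperature. Full response was set by 57 uM dopamine.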
TRPML1 ag – qHTS for Agonists of the Human Mucolipin Transient Receptor Potential 1 (TRPML1); Mucolipin-1 (Homo sapiens), Q9GZU1; TRPML1-expressing cells, Ca2+ dye fluorescence, FDSS; host cell line not named in the record; reference of the full effect not given here; activation, % (test concentration not listed); 410,000 compounds, 0.12% hits; in the data active = activation above about 50%; inconclusive = about 30% to 50%; inactive = below about 30%; also: 0% is about no effect; the text of the record puts the active cut at 80%
Target sequence (Q9GZU1 whole entry, looked up): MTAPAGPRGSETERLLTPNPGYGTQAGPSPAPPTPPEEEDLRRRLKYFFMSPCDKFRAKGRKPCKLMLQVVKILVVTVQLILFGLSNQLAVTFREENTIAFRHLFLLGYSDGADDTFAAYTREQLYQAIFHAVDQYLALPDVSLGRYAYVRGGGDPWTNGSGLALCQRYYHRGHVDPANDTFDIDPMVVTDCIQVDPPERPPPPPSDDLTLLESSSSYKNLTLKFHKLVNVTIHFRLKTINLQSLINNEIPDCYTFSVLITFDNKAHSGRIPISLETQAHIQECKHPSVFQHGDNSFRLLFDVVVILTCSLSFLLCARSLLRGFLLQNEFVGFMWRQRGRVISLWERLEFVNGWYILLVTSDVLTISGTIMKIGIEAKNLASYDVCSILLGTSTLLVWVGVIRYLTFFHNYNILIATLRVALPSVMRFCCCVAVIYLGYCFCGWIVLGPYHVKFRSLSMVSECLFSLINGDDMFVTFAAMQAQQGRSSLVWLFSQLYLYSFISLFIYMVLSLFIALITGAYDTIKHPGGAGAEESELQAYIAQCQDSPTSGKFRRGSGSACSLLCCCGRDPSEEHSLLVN
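Tet-induced TRPML1-DL cells, 1,500 per well, cultured overnight, were loaded with a no-wash Ca2+ dye for 45–90 min. Calcium fluorescence was recorded on the FDSS for 110 s after compound addition, before the EC80 agonist (4 uM 54-4) was added.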
TRPML1 inh – qHTS for Inhibitors of the Human Mucolipin Transient Receptor Potential 1 (TRPML1) | 390,000 compounds, 0.02% hits | activity change, negative = inhibition, % (no concentration beside the values) | Mucolipin-1 (Homo sapiens), Q9GZU1 | TRPML1-inducible cells, Ca2+ dye fluorescence, FDSS; hits give low values; inhibition of EC80 agonist-evoked calcium signal; in the data active means activity change below about -50%; inconclusive means about -30% to -50%; inactive means above about -30%;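 also: stimulus is agonist 54-4 at its EC80 concentration; % is scaled to controls: 0 for no effect and ±100 for the full control effect; compound concentration not given in the record; the text of the record puts the active cut at -80%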
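TRPML1-DL cells, Tet-induced overnight (~16 h, 37 °C) at 1,500 cells/well, were loaded with Ca8 no-wash dye plus quencher for 45-90 min at room temperature. Compounds were pinned during FDSS kinetic reading; agonist 54-4 at EC80 (4 uM final) then added.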
D2 agonist – Beta-Arrestin HTS for Positive Allosteric Modulators of the Human D2 Dopamine Receptor: Agonists. D(2) dopamine receptor (Homo sapiens), P14416. DiscoveRx PathHunter D2 beta-arrestin, luminescence, 90 min; 100% = 57 uM dopamine signal. activation, % (no concentration beside the values). 360,000 compounds, 0.084% hits; in the data active = activation above about 40%; inconclusive = about 15% to 40%; inactive = below about 15%; also: compound concentration not given in the record; the text of the record calls up to 30% inactive
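DiscoveRx PathHunter D2 beta-arrestin cells (2,100/well) attached overnight, then compound-stimulated 90 min at 37 C in HBSS/10 mM HEPES/0.1% Tween-20 buffer; beta-galactosidase complementation read by luminescence after 1 h at ambient temperature. Dopamine 57 uM final (EC100) as control.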
An asterisk follows results filed as active; [ ] = dose if it differs, or a comment.

How did CC(=O)Nc1ccc(N2CCOCC2)c(C(=O)Nc2cccc(C)c2)c1 do in these assays?
Six1-Eya2 inh: 3; PINK1 expr mod: -0.1%[38.3 µM]; D2 PAM: -9; TRPML1 ag: -0.4; TRPML1 inh: 5; D2 agonist: -2.2

How did O=C(Nc1cccc(S(=O)(=O)C(F)F)c1)c1ccc(S(=O)(=O)N2CCCC2)cc1 do in these assays?
Six1-Eya2 inh: -2; PINK1 expr mod: -0.1%; D2 PAM: 4; TRPML1 ag: 0.3; TRPML1 inh: -20; D2 agonist: 2.8

How did CCN(CC(=O)O)S(=O)(=O)c1cc(Cl)ccc1Cl do in these assays?
Six1-Eya2 inh: 1; PINK1 expr mod: 1.7%; D2 PAM: 11; TRPML1 ag: -1.1; TRPML1 inh: 0; D2 agonist: -0.5

Results for CC(C)c1ccc(OCC(=O)NCCO)cc1 ?
Six1-Eya2 inh: 1; PINK1 expr mod: -0.1%; D2 PAM: -11; TRPML1 ag: -0.7; TRPML1 inh: 25; D2 agonist: -2.7

What do the screens show for `COCCNC(=S)N1CCC(C(=O)c2ccc3c(c2)OCCO3)CC1`?
Six1-Eya2 inh: -1; PINK1 expr mod: -0.6%; D2 PAM: -4; TRPML1 ag: -0.1; TRPML1 inh: 20; D2 agonist: -0.3

What do the screens show for `COc1cccc(C(C(=O)NC2CCCC2)N(C(=O)c2ccco2)C2CC2)c1OC` (stereo unspecified)?
Six1-Eya2 inh: 3; PINK1 expr mod: -0.2%; D2 PAM: -5; TRPML1 ag: 0.4; TRPML1 inh: -4; D2 agonist: -1.8

How did COc1cc(/C=C/C(=O)O)ccc1OS(=O)(=O)c1c(C)c(C)cc(C)c1C do in these assays?
Six1-Eya2 inh: -4; PINK1 expr mod: -1.2%; D2 PAM: 0; TRPML1 ag: 0.5; TRPML1 inh: 27; D2 agonist: -3.3

Results for COc1ccc(NC(=O)Nc2cccc3c2O[C@H](CN(C)S(=O)(=O)c2cccs2)[C@@H](C)CN([C@H](C)CO)C3=O)cc1 ?
Six1-Eya2 inh: -6; PINK1 expr mod: -0.1%; D2 PAM: -5; TRPML1 ag: -0.3; TRPML1 inh: -1; D2 agonist: -6.3

What do the screens show for `O=C(NCc1ccccc1)c1cccnc1N1CCOCC1`?
Six1-Eya2 inh: 1; PINK1 expr mod: -0.6%; D2 PAM: 8; TRPML1 ag: -0.3; TRPML1 inh: 7; D2 agonist: -1.3

How did COc1ccc(N(CC(=O)NCc2ccccc2Cl)S(=O)(=O)c2c(C)nn(C)c2C)cc1 do in these assays?
PINK1 expr mod: 0.5%; TRPML1 ag: 1.1; TRPML1 inh: -18

How did COc1cc(/C=N/NC(=S)NCCc2ccccc2)cc(OC)c1OC do in these assays?
Six1-Eya2 inh: -10; PINK1 expr mod: 1.5%; D2 PAM: 8; TRPML1 ag: 3.4; TRPML1 inh: 8; D2 agonist: 0.8

What do the screens show for `COc1cc2c(cc1OC)C(c1ccncc1)CC(=O)N2` (stereo unspecified)?
Six1-Eya2 inh: 7; PINK1 expr mod: 0.9%; D2 PAM: 6; TRPML1 ag: -0.5; TRPML1 inh: 3; D2 agonist: -3.6

What do the screens show for `Cc1cccc(NC(=O)CCn2cnc3ccccc3c2=O)c1`?
PINK1 expr mod: 1.8%; TRPML1 ag: -1.0; TRPML1 inh: -17

How did COC(=O)CNC(=O)c1cc(-c2ccncc2)nc2ccccc12 do in these assays?
Six1-Eya2 inh: 0; PINK1 expr mod: 1.5%; D2 PAM: -2; TRPML1 ag: 0.4; TRPML1 inh: -16; D2 agonist: -2.7

Results for COc1cccc(N2CCN(CC(=O)Nc3ccc(-n4cnnn4)cc3)CC2)c1 ?
Six1-Eya2 inh: 0; PINK1 expr mod: 8.1%; D2 PAM: -1; TRPML1 ag: 0.6; TRPML1 inh: -16; D2 agonist: 5.1

Results for CCn1c(SC(C)C(=O)Nc2ccc3c(c2)OCCO3)nnc1C1CC1 (stereo unspecified) ?
Six1-Eya2 inh: 1; PINK1 expr mod: 1.4%; D2 PAM: -4; TRPML1 ag: 1.1; TRPML1 inh: -5; D2 agonist: -2.7

Results for Cc1cc(OCC(=O)OCC(=O)c2ccc[nH]2)ccc1Cl ?
Six1-Eya2 inh: 11; PINK1 expr mod: 4.8%; D2 PAM: 2; TRPML1 ag: 3.8; TRPML1 inh: 18; D2 agonist: -1.1

What do the screens show for `O=C(CSc1nnc(CNC(=O)c2ccc(F)cc2)o1)NCc1ccc(F)cc1`?
Six1-Eya2 inh: 10; PINK1 expr mod: 0.4%; D2 PAM: -13; TRPML1 ag: -0.6; TRPML1 inh: -15; D2 agonist: -3.1

How did Cc1cc(C(=O)NNC(=O)c2ccc(Cl)c(S(N)(=O)=O)c2)c(C)o1 do in these assays?
Six1-Eya2 inh: 1; PINK1 expr mod: 2.2%; D2 PAM: 1; TRPML1 ag: 0.8; TRPML1 inh: -5; D2 agonist: -2.1

How did O=C(CCl)N1CCN(C(=O)C2COc3ccccc3O2)CC1 (stereo unspecified) do in these assays?
Six1-Eya2 inh: 12; PINK1 expr mod: 4.6%; D2 PAM: -6; TRPML1 ag: -0.2; TRPML1 inh: -1; D2 agonist: -0.6

How did CCOCCCNC(=O)CCN1C(=O)c2ccccc2Sc2ncccc21 do in these assays?
Six1-Eya2 inh: 6; PINK1 expr mod: 0.9%; D2 PAM: 4; TRPML1 ag: 0.5; TRPML1 inh: 25; D2 agonist: 3.1

What do the screens show for `Cc1ccc(S(=O)(=O)N(C)C[C@H]2Oc3ncc(Br)cc3C(=O)N([C@H](C)CO)C[C@@H]2C)cc1`?
Six1-Eya2 inh: -4; PINK1 expr mod: 3.6%; D2 PAM: -3; TRPML1 ag: -0.2; TRPML1 inh: -5; D2 agonist: -8.5

What do the screens show for `CCOC(=O)C(=O)Nc1cc(C)on1`?
Six1-Eya2 inh: 15; PINK1 expr mod: 2.2%; D2 PAM: -10; TRPML1 ag: -0.2; TRPML1 inh: 9; D2 agonist: -6.2

Results for CN(C)c1ccc(P(=O)(Nc2cccc(C(F)(F)F)c2)N2CCOCC2)c(NC(=O)c2cccs2)c1 (stereo unspecified) ?
Six1-Eya2 inh: -15; PINK1 expr mod: 1.4%; D2 PAM: -8; TRPML1 ag: -0.3; TRPML1 inh: 2; D2 agonist: -1.2

Ordered by number of heavy atoms (low to high): some entries from above.
What do the screens show for `CCOC(=O)C(=O)Nc1cc(C)on1`?
Six1-Eya2 inh: 15; PINK1 expr mod: 2.2%; D2 PAM: -10; TRPML1 ag: -0.2; TRPML1 inh: 9; D2 agonist: -6.2

How did O=C(CCl)N1CCN(C(=O)C2COc3ccccc3O2)CC1 (stereo unspecified) do in these assays?
Six1-Eya2 inh: 12; PINK1 expr mod: 4.6%; D2 PAM: -6; TRPML1 ag: -0.2; TRPML1 inh: -1; D2 agonist: -0.6

What do the screens show for `O=C(CSc1nnc(CNC(=O)c2ccc(F)cc2)o1)NCc1ccc(F)cc1`?
Six1-Eya2 inh: 10; PINK1 expr mod: 0.4%; D2 PAM: -13; TRPML1 ag: -0.6; TRPML1 inh: -15; D2 agonist: -3.1

Continuation.
How did Cc1ccc(-c2noc(CN3CCN(Cc4ccccc4)CC3)n2)cc1 do in these assays?
Six1-Eya2 inh: -7; PINK1 expr mod: 1.1%[38.3 µM]; D2 PAM: -2; TRPML1 ag: 0.3; TRPML1 inh: 7; D2 agonist: 1.0

What do the screens show for `CN(C(=O)COC(=O)/C=C/c1ccccc1)C1CCS(=O)(=O)C1` (stereo unspecified)?
Six1-Eya2 inh: 17; PINK1 expr mod: -0.6%; D2 PAM: -15; TRPML1 ag: -0.4; TRPML1 inh: -19; D2 agonist: -1.9

How did CC(C)NC(=O)COC(=O)c1cncc(Br)c1 do in these assays?
Six1-Eya2 inh: 6; PINK1 expr mod: -0.1%; D2 PAM: -2; TRPML1 ag: 0.9; TRPML1 inh: -8; D2 agonist: 0.0

How did COCCNC(=O)c1ccc2c(c1)ncn2-c1ccc(C)c(Cl)c1 do in these assays?
Six1-Eya2 inh: 8; PINK1 expr mod: 9.5%; D2 PAM: 5; TRPML1 ag: -0.7; TRPML1 inh: -13; D2 agonist: -5.6

What do the screens show for `CCc1ccccc1NC(=O)CSc1nc(-c2cccc(Cl)c2)nc2c1Cc1c(CO)cnc(C)c1O2`?
PINK1 expr mod: -0.2%; TRPML1 ag: 1.9; TRPML1 inh: -6

Results for CC(C)CN(C(=O)COC(=O)c1ccc2ccccc2c1)c1c(N)n(Cc2ccccc2)c(=O)[nH]c1=O ?
Six1-Eya2 inh: 5; PINK1 expr mod: 9.1%; D2 PAM: -12; TRPML1 ag: -0.2; TRPML1 inh: 0; D2 agonist: -2.0

What do the screens show for `CC(C)(C)SCCNC(=O)COc1ccc(Cl)cc1`?
Six1-Eya2 inh: 2; PINK1 expr mod: 0.6%[38.3 µM]; D2 PAM: 2; TRPML1 ag: 0.1; TRPML1 inh: 15; D2 agonist: -1.4

What do the screens show for `CC1ON=C(c2ccccn2)N(Cc2ccc3c(c2)OCO3)C1=O` (stereo unspecified)?
Six1-Eya2 inh: 3; PINK1 expr mod: -0.9%; D2 PAM: -6; TRPML1 ag: -0.2; D2 agonist: 8.5

What do the screens show for `CCn1nccc1C(=O)NC1=C(C#N)CCC1`?
Six1-Eya2 inh: 1; PINK1 expr mod: -2.9%[38.3 µM]; D2 PAM: -9; TRPML1 ag: 0.9; TRPML1 inh: 9; D2 agonist: -0.2

How did Cc1cc(NC(=O)NC(C)(C(F)(F)F)C(F)(F)F)no1 do in these assays?
Six1-Eya2 inh: 9; PINK1 expr mod: 1.4%; D2 PAM: -7; TRPML1 ag: 0.1; TRPML1 inh: -15; D2 agonist: -3.1

Results for CN(C)C(=S)SCC(=O)NC(=O)NC(C)(C)C ?
Six1-Eya2 inh: 24; PINK1 expr mod: -0.5%; D2 PAM: -3; TRPML1 ag: -0.8; TRPML1 inh: -11; D2 agonist: -0.1

Results for CC(Sc1nnc(-c2cccs2)n1N)C(=O)NCC1CCCO1 (stereo unspecified) ?
Six1-Eya2 inh: -3; PINK1 expr mod: -3.3%; D2 PAM: -67; TRPML1 ag: 1.3; TRPML1 inh: 2; D2 agonist: -5.8

What do the screens show for `C=CCn1c(CNC(=O)c2ccco2)nnc1SCC(=O)c1ccccc1`?
Six1-Eya2 inh: -2; PINK1 expr mod: -0.5%; D2 PAM: -5; TRPML1 ag: 1.2; TRPML1 inh: 3; D2 agonist: -4.1

Results for Cc1nc(SCc2cc(=O)c3cccc(F)c3[nH]2)n[nH]1 ?
PINK1 expr mod: 2.0%; TRPML1 ag: 4.4; TRPML1 inh: 10

From PubChem
